Screening results: PubChem BioAssay, National Center for Advancing Translational Sciences (NCATS)
NS1 inh: qHTS Assay for Inhibitors of Influenza NS1 Protein Function. S. cerevisiae slowed by influenza A NS1, growth recovery by OD600. Potency, µM (doses to about 46.1 µM), for the others: at the highest dose activity, positive = more growth. 270,000 tested, 0.4% active. AID 2326, 2010; active means well fitted rising curve with a large enough effect; inconclusive means small, poorly fitted or top-dose-only effect; inactive means no such curve, though single readings can be large or run the other way; also: nearly all actives have a fitted effect of over 50% in size
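In this qHTS, NS1 from influenza A is expressed in budding yeast, where it slows growth. Cells are switched from glucose to 2% galactose medium (pH 6.0, -URA), treated with compound, and growth recovery is read at OD600.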
Marburg entry inh: qHTS for inhibitors of binding or entry into cells for Marburg Virus; Marburg virus pseudotyped entry inhibition, cell reporter; control for the full effect not named in the record; about a third of the inactives were read at about 46 µM; Potency, µM (top dose mostly 37.8 µM), for the others: at the highest dose activity change, negative = inhibition, actives largely listed as inhibitors; 300,000 tested, 1.8% active; active = well fitted inhibition curve with a large enough effect; inconclusive = small, poorly fitted or top-dose-only effect, or effect the other way; inactive = flat fitted curve, though single readings scatter; tested in HEK293 cells; about a fifth of its hits are not listed in these tables; also: % is scaled to controls: 0 for no effect and ±100 for the full control effect; luciferase read-out
Cruzain noTriton: qHTS Assay for Promiscuous and Specific Inhibitors of Cruzain (without detergent). Potency, µM, inactives show max response, negative = inhibition, usual class: inhibitors. Cruzipain (Trypanosoma cruzi), P25779. purified cruzain, Z-FR-AMC fluorescence, no detergent. 200,000 tested, 2.3% active;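 also: plate controls were enzyme without inhibitor for no effect and buffer without enzyme for full effect; nearly all actives have a fitted effect of over 40% in size; top concentration of the series not given in the record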
Target sequence (P25779 123-467 limits assumed): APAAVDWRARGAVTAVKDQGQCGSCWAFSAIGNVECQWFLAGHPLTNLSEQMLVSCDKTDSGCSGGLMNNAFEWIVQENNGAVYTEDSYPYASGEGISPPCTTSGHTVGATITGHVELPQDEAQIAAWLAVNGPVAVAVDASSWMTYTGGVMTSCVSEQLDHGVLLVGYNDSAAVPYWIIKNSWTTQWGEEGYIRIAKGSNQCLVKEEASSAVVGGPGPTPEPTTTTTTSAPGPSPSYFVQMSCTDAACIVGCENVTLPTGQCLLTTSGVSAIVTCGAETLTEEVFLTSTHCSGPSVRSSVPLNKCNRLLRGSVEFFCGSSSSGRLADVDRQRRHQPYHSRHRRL
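Detergent-free condition (0.00005% Triton X-100) in acetate buffer pH 5.5 with DTT. 1.5 nM enzyme and compound were pre-mixed 15 min, then 2 uM Z-FR-AMC substrate added; reaction progress from fluorescence change between first and third reads (60 s).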
RE007 growth inh: qHTS Assay for Inhibitors of the HIV-1 protein Vpr. AID 651644, 2012. 360,000 tested, 0.21% active. Potency, µM (top dose mostly 92.2 µM), for the others: at the top dose activity change, negative = less growth. S. pombe RE007 Vpr strain, BacTiter-Glo ATP luminescence, 24 h; control for the full effect not named in the record; active = well fitted falling curve with a large enough effect; inconclusive = small, poorly fitted or top-dose-only effect; inactive = no such curve, though single readings can be large or run the other way;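 also: % is scaled to controls: 0 for no effect and ±100 for the full control effect; nearly all actives have a fitted effect of over 50% in size; the assay follows cell death caused by Vpr and the record does not say whether a fall means rescue or toxicity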
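Fission yeast strain RE007, carrying one chromosomally integrated HIV-1 vpr copy, was seeded at OD 0.01 in PMG+AL medium with 23 nL pinned compound. After 24 h at 30 °C and 99% humidity, viability was read by BacTiter-Glo luminescence.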
SARS PLpro yeast: qHTS of Yeast-based Assay for SARS-CoV PLP | S. cerevisiae expressing SARS-CoV PLpro, growth rescue; control for the full effect not named in the record | Potency, µM (top dose mostly 32.9 µM), inactives show at the top dose activity, positive = growth rescue | 330,000 tested, 0.19% active | AID 485353, 2010; active means well fitted rising curve with a large enough effect; inconclusive means small, poorly fitted or top-dose-only effect; inactive means no such curve, though single readings can be large or run the other way; also: 0% is about no effect; nearly all actives have a fitted effect of over 55% in size; growth read by luminescence after 48 h
Cruzain inh Det: qHTS Assay for Promiscuous and Specific Inhibitors of Cruzain (with detergent). Cruzipain (Trypanosoma cruzi), P25779. Potency, µM, without a hit: max response, negative = inhibition, hits mostly inhibitors. purified cruzain, Z-FR-AMC fluorescence, 0.01% Triton. 200,000 tested, 0.43% active. AID 1478, 2009;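 also: plate controls were neutral wells for no effect and buffer without enzyme for full effect; nearly all actives have a fitted effect of over 40% in size; top concentration of the series not given in the record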
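Enzyme 1.5 nM, Z-FR-AMC 2 uM, NaOAc 100 mM pH 5.5, DTT 5 mM, Triton X-100 0.01%; 15 min RT compound preincubation; kinetic ex360/em450, 60 s delta.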
2A StopGo: High Throughput Screening for Foot and Mouth Disease Virus Antivirals. human cells with a luciferase reporter of 2A StopGo recoding; control for the full effect not named in the record. Potency, µM (doses to about 57.9 µM), without a hit: at the highest dose signal change, negative = less light. 410,000 tested, 1.2% active. AID 1159524, 2015; active = well fitted falling curve with a large enough effect; inconclusive = small, poorly fitted or top-dose-only effect; inactive = no such curve, though single readings can be large or run the other way; tested in HEK293T cells; also: % is scaled to controls: 0 for no effect and ±100 for the full control effect; nearly all actives have a fitted effect of over 45% in size; luciferase light after 4 h
Lassa entry inh: qHTS for Inhibitors of binding or entry into cells for Lassa Virus; Lassa virus pseudotype entry inhibition, cell reporter; control for the full effect not named in the record; Potency, µM (highest dose often 37.9 µM), for inactives: top-dose activity change, negative = inhibition, most hits filed as inhibitors; 300,000 tested, 1.2% active; AID 540256, 2011; active means well fitted inhibition curve with a large enough effect; inconclusive means small, poorly fitted or top-dose-only effect, or effect the other way; inactive means flat fitted curve, though single readings scatter; tested in HEK293 cells; also: % is scaled to controls: 0 for no effect and ±100 for the full control effect; nearly all actives have a fitted effect of over 50% in size; luciferase read-out
Active calls of the source: *; & = joins results of further samples; [ ] = remark or other dose. Unless noted, calls follow the shape of the dose curve; as a rule, active = well fitted curve in the direction sought with a large enough effect; inconclusive = small, poorly fitted or top-dose-only effect, or another doubt; inactive = no such curve, though single readings can be large; an effect the other way counts as inactive or inconclusive. Potency is read from the fitted curve at half-maximal effect.

What do the screens show for `S=C(Nc1ccc(Br)cc1)N1CCCC1`?
NS1 inh: 19%; Marburg entry inh: 17%; Cruzain noTriton: -9%; RE007 growth inh: -26%; SARS PLpro yeast: 20%; Cruzain inh Det: -1.7%; 2A StopGo: 90%[activator]; Lassa entry inh: 3%

Results for CCc1ccccc1NC(=O)Cn1c(=O)ccc2cc(S(=O)(=O)N3CCC(C)CC3)ccc21 ?
Cruzain noTriton: 3%; Cruzain inh Det: -2.8%; 2A StopGo: -10%; Lassa entry inh: -14%[46.1 µM]

What do the screens show for `CC(C)(C=O)Cc1cc(C(C)(C)C)c(O)c(C(C)(C)C)c1`?
NS1 inh: -18%; Marburg entry inh: inconclusive; Cruzain noTriton: 7%&12%; RE007 growth inh: -2%[18.4 µM]; Cruzain inh Det: -7.8%&-0.2%; 2A StopGo: 0%&-9%; Lassa entry inh: inconclusive

What do the screens show for `COc1ccc(CNC(=O)c2c(C)cc(=O)oc2C)cc1OC`?
NS1 inh: -6%; Marburg entry inh: -13%; Cruzain noTriton: 1%; RE007 growth inh: 13%; SARS PLpro yeast: -6%; Cruzain inh Det: -6.1%; 2A StopGo: -30%; Lassa entry inh: -2%

Results for CC1(C)CC(=O)C(C(=O)/C=C/NCCc2ccccc2)C(=O)C1 ?
NS1 inh: 2%; Marburg entry inh: -19%; Cruzain noTriton: -3%; RE007 growth inh: -13%; SARS PLpro yeast: 6%; Cruzain inh Det: -16%; 2A StopGo: -14%; Lassa entry inh: -22%

Results for CCC(C)(C)n1nnnc1C(c1cc2cc(C)cc(C)c2[nH]c1=O)N1CCN(Cc2ccc3c(c2)OCO3)CC1 (stereo not given) ?
NS1 inh: 7%; Marburg entry inh: 12%&-8%; Cruzain noTriton: 21%; RE007 growth inh: 9%; SARS PLpro yeast: 4%; Cruzain inh Det: 12%; 2A StopGo: 5.6µM*; Lassa entry inh: 1%

What do the screens show for `O=c1[nH]cc([N+](=O)[O-])cc1Br`?
NS1 inh: 4%; Marburg entry inh: 0%; Cruzain noTriton: -11%; RE007 growth inh: 4%; SARS PLpro yeast: 15%; Cruzain inh Det: -3.5%; 2A StopGo: -10%; Lassa entry inh: inconclusive

How did Cc1cc(NC(=S)N(Cc2ccc(Br)cc2)Cc2ccc(C(=O)O)cc2)ccc1Cl do in these assays?
Marburg entry inh: -6%[14.2 µM]; RE007 growth inh: -2%; SARS PLpro yeast: -28%; 2A StopGo: inconclusive; Lassa entry inh: inconclusive

What do the screens show for `COC(=O)c1cc2oc(C)cc2n1Cc1cccc(Cl)c1`?
Marburg entry inh: -17%[46.1 µM]; Cruzain noTriton: -4%; Cruzain inh Det: -9.9%; 2A StopGo: -1%

Results for CC(=O)Nc1cccc(-c2nc3ccccc3c(=O)o2)c1 ?
NS1 inh: -36%; Marburg entry inh: inconclusive; Cruzain noTriton: 6%; RE007 growth inh: 15%; SARS PLpro yeast: -2%; Cruzain inh Det: -2.9%; 2A StopGo: 4%; Lassa entry inh: 5%

Results for Cc1c(C(=O)NCc2ccccc2Cl)cccc1-n1cnc2cccnc21 ?
Cruzain noTriton: -4%; Cruzain inh Det: -5.4%; 2A StopGo: -10%; Lassa entry inh: 17%[46.1 µM]

What do the screens show for `CN(CC#CC1(O)c2ccccc2-c2ccccc21)Cc1ccccc1`?
NS1 inh: -1%; Marburg entry inh: -11%; Cruzain noTriton: -7%; RE007 growth inh: -5%; SARS PLpro yeast: -7%; Cruzain inh Det: 3.1%; 2A StopGo: -6%; Lassa entry inh: 4%

How did COc1ccc(N2CCN(c3ccnc4cc(Cl)ccc34)CC2)cc1 do in these assays?
NS1 inh: 7%; Marburg entry inh: -27%[46.1 µM]; RE007 growth inh: 7%; SARS PLpro yeast: -5%; 2A StopGo: inconclusive; Lassa entry inh: -20%[46.1 µM]

What do the screens show for `O=C(CSc1nnc2scc(-c3ccc(F)cc3)n12)NCc1ccco1`?
NS1 inh: -4%; Marburg entry inh: 5%; Cruzain noTriton: -12%; RE007 growth inh: 5%; SARS PLpro yeast: 15%; Cruzain inh Det: 2.2%; 2A StopGo: 18%; Lassa entry inh: 6%

What do the screens show for `O=C(NC1CCCCC1)c1c[nH]c2ccc(S(=O)(=O)Nc3ccccc3F)cc2c1=O`?
Marburg entry inh: 10%[46.1 µM]; Cruzain noTriton: -9%; Cruzain inh Det: -13%; 2A StopGo: 25%; Lassa entry inh: 7%[46.1 µM]

What do the screens show for `CC[C@]12c3[nH]c4ccc(OC)cc4c3CCN1C(=O)C(CC(=O)NCCN1CCOCC1)C[C@@H]2C(=O)N1CCN(C(=O)c2ccco2)CC1` (stereo not given in full)?
Marburg entry inh: 1%; RE007 growth inh: -4%; SARS PLpro yeast: 0%; 2A StopGo: -13%

Results for COC(=O)c1ccc(NS(=O)(=O)c2ccccc2)o1 ?
Marburg entry inh: -1%[46.1 µM]; RE007 growth inh: -10%; SARS PLpro yeast: -4%; 2A StopGo: -10%; Lassa entry inh: 1%

How did C/C(=N\NC(=O)CNC(=O)c1ccc2c(c1)OCO2)c1ccco1 do in these assays?
NS1 inh: 0%; Marburg entry inh: -33%; Cruzain noTriton: -13%; RE007 growth inh: -6%; SARS PLpro yeast: 11%; Cruzain inh Det: -0.6%; 2A StopGo: 5%; Lassa entry inh: 1%

How did O=C(NCCCn1ccnc1)c1cc(-c2ccccc2)on1 do in these assays?
NS1 inh: 2%; RE007 growth inh: 4%; SARS PLpro yeast: 0%; 2A StopGo: 74%[activator]

What do the screens show for `COc1ccc(NC(=O)C(Cc2ccccc2)NS(=O)(=O)c2ccc3c(c2)oc(=O)n3C)c(OC)c1` (stereo not given)?
Marburg entry inh: 1%[46.1 µM]; Cruzain noTriton: -3%; Cruzain inh Det: 5.0%; 2A StopGo: -13%; Lassa entry inh: inconclusive

How did CCC(C)N(CCNC(=O)CC1Oc2ccc(C)cc2NC1=O)C1CCCCC1 (stereo not given) do in these assays?
NS1 inh: -4%; Cruzain noTriton: -7%; RE007 growth inh: -9%; SARS PLpro yeast: 1%; Cruzain inh Det: -1.3%; 2A StopGo: -13%

How did Cc1nnc(SCC(=O)c2ccc(C(C)C)cc2)s1 do in these assays?
NS1 inh: -2%; Marburg entry inh: inconclusive; RE007 growth inh: -27%; SARS PLpro yeast: -1%; 2A StopGo: 40%[activator]; Lassa entry inh: 12%

What do the screens show for `Fc1cccc(COc2ccccc2C(=S)N2CCCC2)c1`?
NS1 inh: -4%; Marburg entry inh: -14%[46.1 µM]; RE007 growth inh: 12%; SARS PLpro yeast: 0%; 2A StopGo: 0%; Lassa entry inh: 19%

Results for CCOC(=O)c1[nH]c2ccccc2c1NC(=S)Nc1cccc(C)c1 ?
NS1 inh: 17%; Marburg entry inh: 3%; Cruzain noTriton: 6%; RE007 growth inh: -12%; SARS PLpro yeast: -5%; Cruzain inh Det: -6.9%; 2A StopGo: 25%; Lassa entry inh: inconclusive

What do the screens show for `Cc1cc2ncc(-c3cccs3)nc2cc1C`?
NS1 inh: -7%; RE007 growth inh: -18%; SARS PLpro yeast: 0%; 2A StopGo: -31%

How did CSCCn1c(C(C)(C)C)cc(C(=O)O)c1C do in these assays?
NS1 inh: -1%; Marburg entry inh: 1%; RE007 growth inh: 66%; SARS PLpro yeast: 0%; 2A StopGo: -16%; Lassa entry inh: 4%

Results for CCCc1cc(=O)[nH]c(SCC(=O)Nc2ccc3c(c2)CCC3)n1 ?
NS1 inh: 3%; Marburg entry inh: 8%[46.1 µM]; RE007 growth inh: 3%; SARS PLpro yeast: 0%; 2A StopGo: 5%; Lassa entry inh: 9%[46.1 µM]

What do the screens show for `COc1ccc(NC(=O)C(=O)NCC(c2ccco2)N2CCc3ccccc3C2)cc1OC` (stereo not given)?
Marburg entry inh: inconclusive; RE007 growth inh: -8%; SARS PLpro yeast: 3%; 2A StopGo: -24%; Lassa entry inh: inconclusive

Results for CN(C(=O)CCN1CCCO1)C1CCCN(Cc2ccccc2F)C1 (stereo not given) ?
NS1 inh: 11%; RE007 growth inh: -5%; SARS PLpro yeast: 6%; 2A StopGo: -4%

What do the screens show for `COc1ccccc1-n1c(O)c(C=NCc2ccccn2)c2ccccc2c1=O`?
NS1 inh: 2%; RE007 growth inh: 13%; SARS PLpro yeast: -2%; 2A StopGo: -19%

How did CC(=O)Nc1ccc(S(=O)(=O)NCC2CCC(C(=O)N3CCCCC3)CC2)cc1 (stereo not given) do in these assays?
NS1 inh: -3%; RE007 growth inh: 9%; SARS PLpro yeast: 1%; 2A StopGo: -15%

What do the screens show for `O=S(=O)(O)C(c1ccccc1)C1(O)CCCCC1` (stereo not given)?
Marburg entry inh: -3%[46.1 µM]; RE007 growth inh: -21%; 2A StopGo: -5%; Lassa entry inh: 0%[46.1 µM]

How did CNc1nc(SCc2ccc(C)cc2)nc2c1CCCC2 do in these assays?
NS1 inh: -155%; Marburg entry inh: inconclusive; Cruzain noTriton: -8%; RE007 growth inh: -24%; SARS PLpro yeast: -35%; Cruzain inh Det: -5.5%; 2A StopGo: 1%; Lassa entry inh: -30%

What do the screens show for `CCC(C)[C@H](NC(=O)[C@@H]1CSC2c3ccccc3C(=O)N21)C(=O)NCc1ccncc1` (stereo not given in full)?
NS1 inh: 5%; RE007 growth inh: -2%; SARS PLpro yeast: -4%; 2A StopGo: -4%

How did CCOC(=O)CNC(=O)N1CCc2cc(S(=O)(=O)N3CCC(C)CC3)ccc21 do in these assays?
Marburg entry inh: inconclusive; Cruzain noTriton: 16%; Cruzain inh Det: -5.2%; 2A StopGo: 0%; Lassa entry inh: -1%[46.1 µM]

How did Cc1ccc(Nc2nnc(C(C)(C)C)c(=O)n2N)cc1 do in these assays?
NS1 inh: -1%; Marburg entry inh: -1%; Cruzain noTriton: -5%; RE007 growth inh: 0%; SARS PLpro yeast: -7%; Cruzain inh Det: -1.9%; 2A StopGo: -16%; Lassa entry inh: -9%
